From PubChem BioAssay
StopGo reporter – High Throughput Screening for Foot and Mouth Disease Virus Antivirals. human cells with a luciferase reporter of 2A StopGo recoding; control for the full effect not named in the record. Potency, µM (titrated, usually from 57.9 µM), for inactives: top-dose signal change, negative = less light. 410,000 tested, 1.2% active. AID 1159524, 2015; active = well fitted falling curve with a large enough effect; inconclusive = small, poorly fitted or top-dose-only effect; inactive = no such curve, though single readings can be large or run the other way; tested in HEK293T cells; also: % is scaled to controls: 0 for no effect and ±100 for the full control effect; nearly all actives have a fitted effect of over 45% in size; luciferase light after 4 h
NS1 inh – qHTS Assay for Inhibitors of Influenza NS1 Protein Function | S. cerevisiae slowed by influenza A NS1, growth recovery by OD600 | Potency, µM (doses to about 46.1 µM), for inactives: at the top dose activity, positive = more growth | 270,000 tested, 0.4% active; also: actives are rising curves; nearly all actives have a fitted effect of over 50% in size
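In this qHTS, NS1 from influenza A is expressed in budding yeast, where it slows growth. Cells are switched from glucose to 2% galactose medium (pH 6.0, -URA), treated with compound, and growth recovery is read at OD600.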
Cruzain inh noDet – qHTS Assay for Promiscuous and Specific Inhibitors of Cruzain (without detergent) | Cruzipain (Trypanosoma cruzi), P25779 | purified cruzain, Z-FR-AMC fluorescence, no detergent | AID 1476, 2009 | Potency, µM, inactives show max response, negative = inhibition, hits mostly inhibitors | 200,000 tested, 2.3% active; active = well fitted curve in the direction sought with a large enough effect; inconclusive = small, poorly fitted or top-dose-only effect, or another doubt; inactive = no such curve, though single readings can be large; an effect the other way counts as inactive or inconclusive;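 also: plate controls were enzyme without inhibitor for no effect and buffer without enzyme for full effect; nearly all actives have a fitted effect of over 40% in size; top concentration of the series not given in the record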
Target sequence (P25779 123-467 limits assumed): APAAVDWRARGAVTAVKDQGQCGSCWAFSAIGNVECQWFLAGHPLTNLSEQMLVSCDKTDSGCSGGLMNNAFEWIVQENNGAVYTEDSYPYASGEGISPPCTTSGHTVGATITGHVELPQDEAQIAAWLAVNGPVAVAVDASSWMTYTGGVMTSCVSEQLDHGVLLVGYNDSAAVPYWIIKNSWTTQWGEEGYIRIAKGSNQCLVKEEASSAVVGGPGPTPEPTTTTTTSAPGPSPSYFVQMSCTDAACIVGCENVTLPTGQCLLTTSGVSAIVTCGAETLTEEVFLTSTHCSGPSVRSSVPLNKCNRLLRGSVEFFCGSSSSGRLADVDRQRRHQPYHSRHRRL
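Purified cruzain at 1.5 nM, pre-incubated 15 min with compound at room temperature in 100 mM sodium acetate pH 5.5, 5 mM DTT, 0.00005% Triton X-100. Reaction started with 2 uM Z-FR-AMC; AMC fluorescence increase over 60 s gives rate.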
Cruzain Triton – qHTS Assay for Promiscuous and Specific Inhibitors of Cruzain (with detergent). 200,000 tested, 0.43% active. Potency, µM, for the others: max response, negative = inhibition, hits mostly inhibitors. Cruzipain (Trypanosoma cruzi), P25779. purified cruzain, Z-FR-AMC fluorescence, 0.01% Triton; active = well fitted curve in the direction sought with a large enough effect; inconclusive = small, poorly fitted or top-dose-only effect, or another doubt; inactive = no such curve, though single readings can be large; an effect the other way counts as inactive or inconclusive;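 also: plate controls were neutral wells for no effect and buffer without enzyme for full effect; nearly all actives have a fitted effect of over 40% in size; top concentration of the series not given in the record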
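Enzyme 1.5 nM, Z-FR-AMC 2 uM, NaOAc 100 mM pH 5.5, DTT 5 mM, Triton X-100 0.01%; 15 min RT compound preincubation; kinetic ex360/em450, 60 s delta.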
SARS PLpro yeast – qHTS of Yeast-based Assay for SARS-CoV PLP. AID 485353, 2010. Potency, µM (top dose mostly 32.9 µM), for the others: at the highest dose activity, positive = growth rescue. 330,000 tested, 0.19% active. S. cerevisiae expressing SARS-CoV PLpro, growth rescue; control for the full effect not named in the record; also: 0% is about no effect; nearly all actives have a fitted effect of over 55% in size; growth read by luminescence after 48 h
Marburg entry inh – qHTS for inhibitors of binding or entry into cells for Marburg Virus. 300,000 tested, 1.8% active. Potency, µM (series often up to 37.8 µM), without a hit: at the highest dose activity change, negative = inhibition, usual class: inhibitors. Marburg virus pseudotyped entry inhibition, cell reporter; control for the full effect not named in the record; about a third of the inactives were read at about 46 µM. AID 540276, 2011; active = well fitted inhibition curve with a large enough effect; inconclusive = small, poorly fitted or top-dose-only effect, or effect the other way; inactive = flat fitted curve, though single readings scatter; tested in HEK293 cells; about a fifth of its hits are not listed in these tables; also: % is scaled to controls: 0 for no effect and ±100 for the full control effect; luciferase read-out
RE007 growth inh – qHTS Assay for Inhibitors of the HIV-1 protein Vpr; S. pombe RE007 Vpr strain, BacTiter-Glo ATP luminescence, 24 h; control for the full effect not named in the record; Potency, µM (highest dose often 92.2 µM), inactives show at the top dose activity change, negative = less growth; 360,000 tested, 0.21% active; AID 651644, 2012; active = well fitted falling curve with a large enough effect; inconclusive = small, poorly fitted or top-dose-only effect; inactive = no such curve, though single readings can be large or run the other way;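 also: % is scaled to controls: 0 for no effect and ±100 for the full control effect; nearly all actives have a fitted effect of over 50% in size; the assay follows cell death caused by Vpr and the record does not say whether a fall means rescue or toxicity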
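Fission yeast strain RE007, carrying one chromosomally integrated HIV-1 vpr copy, was seeded at OD 0.01 in PMG+AL medium with 23 nL pinned compound. After 24 h at 30 °C and 99% humidity, viability was read by BacTiter-Glo luminescence.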
LASV entry inh – qHTS for Inhibitors of binding or entry into cells for Lassa Virus; 300,000 tested, 1.2% active; Potency, µM (series often up to 37.9 µM), for the others: top-dose activity change, negative = inhibition, actives largely listed as inhibitors; Lassa virus pseudotype entry inhibition, cell reporter; control for the full effect not named in the record; AID 540256, 2011; active means well fitted inhibition curve with a large enough effect; inconclusive means small, poorly fitted or top-dose-only effect, or effect the other way; inactive means flat fitted curve, though single readings scatter; tested in HEK293 cells; also: % is scaled to controls: 0 for no effect and ±100 for the full control effect; nearly all actives have a fitted effect of over 50% in size; luciferase read-out
Numbers without * were called inactive; u = inconclusive; x = no result given; & = joins results of further samples; [ ] = another dose, or the depositor's remark. Unless noted, calls follow the shape of the dose curve; as a rule, active means well fitted rising curve with a large enough effect; inconclusive means small, poorly fitted or top-dose-only effect; inactive means no such curve, though single readings can be large or run the other way. Potency is read from the fitted curve at half-maximal effect.

SMILES	StopGo reporter	NS1 inh	Cruzain inh noDet	Cruzain Triton	SARS PLpro yeast	Marburg entry inh	RE007 growth inh	LASV entry inh
Cc1cccc(NC(=O)COC(=O)c2nn(C)c(=O)c3ccccc23)c1C	4%	x	x	x	-2%	-2%	7%	-28%
CCc1ccc(OCC(=O)NC(=S)Nc2ccc(Br)c(C)n2)cc1	6%	-6%	x	x	0%	x	5%	x
C=CCNC(=O)c1cc(C(=O)C(C)c2ncc(C(F)(F)F)cc2Cl)c[nH]1 (stereo not given)	-3%	x	x	x	0%	11%[46.1 µM]	11%	1%
Cn1ncc(C(=O)N2CCN(c3ccccc3F)CC2)c1C1CCN(C(=O)OC(C)(C)C)CC1	-5%	x	u	-2.2%	x	x	x	x
O=C(CSc1ncn[nH]1)Nc1ccc(Cl)c(S(=O)(=O)N2CCOCC2)c1	22%	x	x	x	2%	-18%[46.1 µM]	2%	6%[46.1 µM]
Cc1nc(C)c(CCNS(=O)(=O)c2ccc(C)c(C)c2)s1	29%	x	-4%	-7.7%	x	x	x	0%[46.1 µM]
CCOc1ccc(NC(=O)c2sc3nc4c(cc3c2N)CN(Cc2ccccc2)CC4)cc1	-9%	x	10%	-2.4%	x	-8%[46.1 µM]	x	20%[46.1 µM]
CCOc1ccc2[nH]c(=O)c(CN(CC3COCCO3)C(=O)c3ccco3)cc2c1 (stereo not given)	-4%	0%	-10%	-6.6%	8%	-20%	0%	19%
Cc1csc(NC(=O)[C@@H](NC(=O)c2ccccc2)C(C)C)n1	-9%	-1%	3%	-2.9%	16%	10%	-3%	9%
O=C(Oc1ccccc1)N1CCOCC1	-3%	4%	x	x	2%	u	-15%	u
O=C(CN1CCN(S(=O)(=O)c2ccc(Cl)cc2)CC1)NC1CC1	-2%	-24%	x	x	1%	-4%[46.1 µM]	14%	26%[46.1 µM]
COc1ccc(NC(=O)c2oc3ccccc3c2NC(=O)C23CC4CC(CC(C4)C2)C3)c(OC)c1	-9%	x	u	-0.4%	x	8%[46.1 µM]	x	-9%[46.1 µM]
COc1ccc(NC(=O)c2csnn2)cc1Cl	14%	x	-16%	-6.5%	x	14%[46.1 µM]	x	17%[46.1 µM]
COc1ccc(C2=C(C)C(N3CCC(C(=O)Nc4ccc(F)cc4C)CC3)=NS2(=O)=O)cc1	-14%	x	-22%	-3.6%	x	x	x	4%[46.1 µM]
C/C(=C\C(=O)c1ccc(Br)cc1)N1CCCCC1	x	-7%	9%	-3.2%	-14%	3%	6%	9%
COc1ccc(Oc2nc3c(C)cccn3c(=O)c2/C=C(\C#N)c2nc3ccccc3[nH]2)cc1	4%	x	9%	-0.3%	x	-1%[46.1 µM]	x	3%[46.1 µM]
CC(C)CCNC(=O)Nc1ccc2c(c1)N(Cc1ccccc1)C(=O)c1ccccc1S2	-19%	x	u	-6.4%	x	u	x	u
O=C(NC1CCCCC1)N1CCC(n2cnc3ccccc32)CC1	7%	-6%	-10%	3.3%	-5%	11%	-9%	-8%
O=C1CC2(CCN(C(=O)c3ccc(F)c(F)c3)CC2)Oc2ccccc21	7%	x	x	x	5%	-25%[46.1 µM]	-10%	-1%
Fc1ccc(CNC(=S)Nc2ccc(Cl)cc2)cc1	-1%	-33%	5%	-2.5%	u	-3%	0%	-6%
COCCNC(=O)c1cccc(-n2c(C)nc3cccnc32)c1	10%	x	3%	0.1%	x	x	x	10%[46.1 µM]
Cc1cccc(NC(=O)CN2CCC(C(=O)c3ccc4c(c3)OCCO4)CC2)c1	-26%	-1%	x	x	12%	-7%[46.1 µM]	-19%	-8%[46.1 µM]
CC(C)(C)N1C(=O)Cc2c1nc(N)c1c(N)nc(N3CCCCC3CO)c(C#N)c21 (stereo not given)	12%	u	18%	-26%	1%	-7%	0%	-5%
CCOC(=O)c1c(S(=O)(=O)N2CCCC(C(=O)Nc3ccc(C)cc3C)C2)c(C)n(CC)c1C (stereo not given)	0%	x	u	1.2%	x	x	x	-11%[46.1 µM]
CC(=O)c1ccc(Nc2ccc(-c3ccccc3C)nn2)cc1	0%	-10%	x	x	0%	-15%	8%	2%

The results go on.
SMILES	StopGo reporter	NS1 inh	Cruzain inh noDet	Cruzain Triton	SARS PLpro yeast	Marburg entry inh	RE007 growth inh	LASV entry inh
CCCCOc1cccc(-c2nnc(NC(=O)CSc3ccc(C)cc3)s2)c1	-11%	8%	u	2.6%	21%	2%	7%	0.32µM*
CCc1cc(=O)oc2cc(C)cc(OCC(=O)NC(Cc3ccc(Cl)cc3)C(=O)O)c12 (stereo not given)	-11%	29%	x	x	-7%	x	22%	x
COC(=O)C1=C(O)C2(C(=O)O)CC(C(=O)OC)=C(O)C(C(=O)O)(C1)C2	-7%	-1%	x	x	0%	-1%&-1%[46.1 µM]	13%	1%
Cc1ccc(CN2CCN(C3CCN(C(=O)Nc4ccccc4C(F)(F)F)CC3)C(=O)C2=O)cc1	2%	x	10%	1.2%	x	x	x	-2%[46.1 µM]
O=C(OCC(=O)N1CCOCC1)c1cc(=O)[nH]c2ccccc12	11%	x	x	x	1%	u	-21%	17%
O=C1c2ccccc2S(=O)(=O)N1Cc1nnc(-c2ccccc2Br)o1	31%[activator]	-17%	2%	-4.8%	-18%	-1%	10%	-9%
CCC(C)NC(=O)c1cn(CC)c2cc(N3CCN(C)CC3)c(F)cc2c1=O (stereo not given)	-15%	-2%	x	x	1%	x	2%	x
COc1ccccc1N1CCN(c2cc(=O)n(-c3ccc(Br)cc3)c(=O)[nH]2)CC1	-13%	7%	u	1.8%	0%	5%	9%	25%[14.3 µM]
CCc1ccc2[nH]c(C(=O)N(C)c3ccc(F)cc3F)cc2c1	-11%	7%	x	x	1%	-2%	6%	2%
COc1ccc(N2CCN(C(=O)c3cc4c(=O)n(Cc5ccccc5)ccc4nc3C)CC2)cc1	u	9%	u	-3.9%	10%	x	1%	-11%[46.1 µM]
O=C(CCC1CCN(Cc2ccc(Cl)cc2)CC1)NC1CC1	-11%	-1%	x	x	4%	12%	3%	-6%
Cc1c(CC(=O)O)c(=O)oc2cc3occ(-c4ccc(F)cc4)c3cc12	58%[activator]	4%	x	x	4%	19%	13%	u
CN(C)C(=O)c1nc(C#N)c(N(C)C)o1	x	-3%	3%	3.3%	2%	25%	-1%	-2%
CN(C(=O)CC1C(=O)NCCN1Cc1cccc(C(F)(F)F)c1)C1CCOCC1 (stereo not given)	-10%	8%	x	x	-2%	x	-7%	x
CS(=O)(=O)N(CC(=O)N1CCOCC1)Cc1ccccc1	x	7%	-6%	1.9%	1%	15%	-2%	14%
O=C(N/N=C/c1ccc(OC(=O)c2cccc(F)c2)cc1)c1cccnc1	13%	-11%	x	x	-4%	22%[46.1 µM]	-4%	14%
CCCCc1ncc(CN2CCC(CC3CCCCO3)(C(=O)OCC)CC2)[nH]1 (stereo not given)	16%	4%	x	x	0%	u	-19%	26%[46.1 µM]
Cc1ccccc1-n1ncc2c(SCC(=O)NC3CCCC3)ncnc21	u	11%	x	x	3%	u	-10%	x
C(=N\Nc1nc2ccccc2s1)/c1ccco1	x	4%	3%	-15%	9%	-29%	18%	u
O=C(NC(C(=O)c1ccccc1)n1c(=O)cc[nH]c1=S)c1ccccc1 (stereo not given)	x	17%	-5%	-7.3%	0%	19%	-4%	-13%
O=C1CC(C(=O)N2CCN(c3ccc(F)cc3)CC2)CN1CCc1ccccc1 (stereo not given)	-12%	u	13%	2.2%	-7%	0%	-10%	x
Cc1cccc(NC(=S)NCc2cccs2)c1C	39%[activator]	-2%	1%	-0.5%	u	11%	13%	1%
CCOC(=O)c1ccc2c(c1)N(Cc1ccc(F)cc1Cl)C(=O)c1ccccc1S2	-29%	x	0%	0.3%	x	x	x	-27%[46.1 µM]
O=C(Nc1cnn(Cc2ccc(Cl)cc2)c1)c1cccs1	4%	-43%	x	x	0%	x	-13%	x
CCOC(=O)c1oc2cc(C)cc(C)c2c1C	32%[activator]	5%	x	x	-1%	x	-19%	x

Next section.
SMILES	StopGo reporter	NS1 inh	Cruzain inh noDet	Cruzain Triton	SARS PLpro yeast	Marburg entry inh	RE007 growth inh	LASV entry inh
O=C(CCS(=O)(=O)c1ccccc1)Nc1ccc(S(=O)(=O)Nc2nccs2)cc1	10%	x	x	x	2%	18%	-12%	9%
CC(=O)c1cc(F)c(N2CCN(c3ccc([N+](=O)[O-])cc3F)CC2)cc1C	-20%	4%	0%	0.6%	-11%	4%	3%	3%
COc1ccc(C(=O)NCCSCc2ccco2)cc1OC	7%	-6%	1%	3.2%	2%	u	-6%	-10%
CC(=O)c1ccc(OCCCC(=O)N2CCN(S(=O)(=O)c3cccs3)CC2)cc1	-15%	-4%	3%	2.3%	-8%	22%	-3%	-12%
COCCNC(=O)c1c(N)n(CCC2=CCCCC2)c2nc3ccccc3nc12	u	22%	u	-22%	2%	1%&-17%	2%	-4%
O=C(NCCC1=CCCCC1)C1CCN(S(=O)(=O)c2cnc[nH]2)CC1	9%	-2%	-12%	8.3%	7%	5%[46.1 µM]	-1%	u
CNC(=O)COc1ncnc2sccc12	-17%	-1%	-8%	0.7%	17%	u	0%	5%
Cc1cccc(-n2nc(C)c(C(=O)N3CCN(c4ccccc4)CC3)c2-n2cccc2)c1	u	x	-11%	2.7%	x	x	x	-12%[46.1 µM]
O=C(NC1CC1)c1c[nH]c2ccc(S(=O)(=O)Nc3cccc(C(F)(F)F)c3)cc2c1=O	-11%	-40%	3%	-9.6%	7%	8%	-7%	-11%
CCc1nnc(NC(=O)C2CCN(c3nc(C)cc(C)n3)CC2)s1	21%	-5%	-4%	4.9%	8%	1%	-16%	12%
O=C(NC(=O)c1c(F)cccc1F)Nc1ccccc1SC(F)F	5%	8%	x	x	-1%	-22%[46.1 µM]	0%	-6%[46.1 µM]
CC(C)Oc1ccc(C(=O)NC2CCN(Cc3ccccc3)CC2)cc1	u	-6%	x	x	1%	u	0%	-2%[46.1 µM]
Cc1ccc(CCNC(=O)c2cnc3c(C)cccn3c2=O)cc1	52%[activator]	x	-1%	-3.3%	x	x	x	15%[46.1 µM]
